Screening data: PubChem, Center for Chemical Genomics, University of Michigan
HIV TAR-Tat – HIV-1 TAR-Tat binding disruption. HIV-1 TAR RNA, Tat peptide displacement FRET; stronger effect = higher value. z-score (test concentration not listed). 0.6% of 100,000 active;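 further: score is relative to mean and SD of negative controls; some compounds called inactive have numbers as strong as hits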
CDC25B CDK2 inh – human CDC25B-CDK2/CyclinA binding inhibition; P30305+P24941; HTRF CDC25B-CDK2/CyclinA binding, anti-His/anti-Flag; stronger effect = higher value; z-score (test concentration not listed); 0.72% of 94,000 active; AID 1259370;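 further: score is relative to mean and SD of negative controls; strong numbers were not always called active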
The depositor's hits bear a star; . = not tested or not shown.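 How the source made its calls: active means z-score from 3 up in half or more of its runs; inactive means the rest.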

| compound | HIV TAR-Tat | CDC25B CDK2 inh |
| --- | --- | --- |
| Cc1ccc(C2C=C(C(=O)O)Nc3ncnn32)cc1Br (centres undefined) | 0.83 | . |
| O=C1c2ccncc2C(=O)N1CC1CCCO1 (centres undefined) | 1.4 | . |
| Cc1ccc(-c2nc3scc(CCNS(=O)(=O)c4c(C)noc4C)n3n2)cc1 | 1.4 | . |
| O=C1c2cnccc2CN1Cc1ccccc1 | 0.95 | -0.31 |
| COCCOC(=O)C1=C(C)NC2=C(C(=O)CC(c3ccc(OC)c(OC)c3)C2)C1c1ccc(F)cc1 (centres undefined) | 1.2 | 0.42 |
| O=C(CCc1nnc2ccc(N3CCCC3)nn12)NCc1ccccn1 | -0.7 | . |
| COc1ccc(-c2nc(SCc3cc(=O)n4c(C)csc4n3)n[nH]2)cc1 | -1.5 | . |
| CC(=O)Nc1sc2c(c1SC#N)CCCC2 | 2.5 | -0.9 |
| CC1(C)CCc2cc(C3=C(O)/C(=C/c4ccc(O)c(CC(O)C(C)(C)O)c4)OC3=O)c(O)cc2O1 (centres undefined) | 2 | . |
| COc1ccc(CNS(=O)(=O)c2ccc3c(c2)N(C)CCO3)cc1 | 1.6 | . |
| O=S(=O)(Nc1ccc(F)c(F)c1)c1ccc(N2CCCCS2(=O)=O)cc1 | 1.2 | . |
| Cc1nnc2sc(COc3ccc(C(C)(C)C)cc3)nn12 | 1.4 | -0.78 |
| COc1ccc(C(=O)CCC(=O)O)cc1 | 1.3 | -3.2 |
| C=CCC1c2cccc(C(=O)O)c2C(=O)N1c1ccc(F)cc1 (centres undefined) | . | 2.6 |
| C=CCN(Cc1nc(-c2ccc(Cl)cc2)no1)C(=O)NCC | 0.69 | -1.8 |
| O=C(Nc1cc(F)ccc1F)N1CCN(Cc2ccc3nccnc3c2)CC1 | 0.4 | . |
| O=C(NCC1CCCO1)c1cc2nc(-c3ccc(Br)cc3)cc(C(F)(F)F)n2n1 (centres undefined) | 1.1 | -1.4 |
| COc1cc(NS(=O)(=O)c2ccc3c(c2)NC(=O)CC(C)S3)cc(OC)c1 (centres undefined) | 1.2 | . |
| CCOC(=O)C1=C(C)N=C2SCC(=O)N2C1c1cccc(OC)c1 (centres undefined) | -0.81 | -1.4 |
| COCCn1c(=O)c2sc3ccccc3c2n(CCN2CCOCC2)c1=O | . | -1.2 |

Overlap with the part before: 2 entries, followed by the next part.
| compound | HIV TAR-Tat | CDC25B CDK2 inh |
| --- | --- | --- |
| CCOC(=O)C1=C(C)N=C2SCC(=O)N2C1c1cccc(OC)c1 (centres undefined) | -0.81 | -1.4 |
| COCCn1c(=O)c2sc3ccccc3c2n(CCN2CCOCC2)c1=O | . | -1.2 |
| C=CCSc1nnc(NC(=O)Cc2coc3ccc(OC)cc23)s1 | -0.64 | -1.4 |
| Cc1ccc2nc(NCCCN3CCOCC3)c3nnnn3c2c1 | 0.08 | . |
| N#Cc1cnn(-c2ccnc3cc(Cl)ccc23)c1N | . | -1.1 |
| COc1ccc(Cl)cc1NC(=O)Nc1cccs1 | 0.27 | 0.65 |
| O=C1CC(c2ccccc2)Sc2nc(-c3cccc4ccccc34)nn21 (centres undefined) | 0.25 | -1.8 |
| CCOC(=O)c1cc(CC)sc1NC(=O)c1sc(C)nc1C | 0.24 | -0.45 |
| CC(=O)N1c2ccccc2CC1C(=O)NCCC(C)C (centres undefined) | 1.6 | . |
| Fc1ccc(N2CCN(Cc3nnc(-c4ccccc4F)o3)CC2)cc1 | 0.29 | 0.31 |
| CCCCCCCCCCCC(=O)N1CC(=O)NC(=O)C1 | . | -0.31 |
| Cc1ccccc1Cn1c(CN2CCOCC2)nc2ccccc21 | 1.3 | 0.49 |
| C=C[Si]1(C)O[Si](C)(c2ccccc2)O[Si](C)(C=C)O[Si](C)(c2ccccc2)O1 (centres undefined) | . | -3.4 |
| Cn1c(=O)n(C)c2cc(S(=O)(=O)Nc3ccc(F)cc3)ccc21 | 0.97 | -0.14 |
| Cc1cc(C)c(NC(=O)C(C)n2nc(C)c3sc4ccccc4c3c2=O)c(C)c1 (centres undefined) | 1.4 | -1.7 |
| COc1ccc(CCN2CC(O)=C(c3nc4ccccc4[nH]3)C2=N)cc1 | 1.7 | -0.57 |
| N#Cc1cc(-c2ccccc2)oc1N | . | -1.4 |
| Cc1ccc(-n2nc3ccc(N)cc3n2)cc1Cl | 0.29 | -1.5 |
| O/N=C/c1sccc1Oc1ccccc1 | . | -0.2 |
| COc1ccc(OC)c(C2C3=C(CC(C)(C)CC3=O)Nc3ccc4ccccc4c32)c1 (centres undefined) | 0.52 | -0.96 |
| CC(C)CN(CC(C)C)c1ncnc2c1cnn2-c1ccccc1 | 1.8 | . |
| Cc1cc2c(N3CCN(c4ccc(F)cc4)CC3)ncnc2s1 | 2.6 | . |

Laid out differently: results already given
Below each compound – HIV TAR-Tat	CDC25B CDK2 inh
- COCCOC(=O)C1=C(C)NC2=C(C(=O)CC(c3ccc(OC)c(OC)c3)C2)C1c1ccc(F)cc1 (centres undefined)
    1.2	0.42
- O=C1CC(c2ccccc2)Sc2nc(-c3cccc4ccccc34)nn21 (centres undefined)
    0.25	-1.8
- CC(=O)Nc1sc2c(c1SC#N)CCCC2
    2.5	-0.9
- Cc1nnc2sc(COc3ccc(C(C)(C)C)cc3)nn12
    1.4	-0.78
- O=C1c2ccncc2C(=O)N1CC1CCCO1 (centres undefined)
    1.4	.

Additional records
| compound | HIV TAR-Tat | CDC25B CDK2 inh |
| --- | --- | --- |
| CC(NC(=O)c1ccco1)C(c1cccs1)N1CCOCC1 (centres undefined) | . | -1.5 |
| CC1CN(C2CCN(CC3CC4C=CC3C4)CC2)CC(C)O1 (centres undefined) | . | -1.3 |
| OCc1nc2ccccc2n1Cc1cccc(Cl)c1 | -0.29 | -1.2 |
| O=C(CC1(CC2=NS(=O)(=O)c3ccccc3N2)CCCC1)NCc1ccccc1Cl | -2 | . |
| CCCCOCCCN1CC(O)=C(c2nc3ccc(C)cc3[nH]2)C1=N | 1.4 | -2.4 |
| CSc1nc(NCC2CCCO2)c(C#N)c(-c2ccccc2)n1 (centres undefined) | -0.91 | -1.9 |
| O=C(NCC1CCCO1)C1CCN(S(=O)(=O)c2ccc(F)cc2)CC1 (centres undefined) | 0.13 | -0.35 |
| COc1ccc(CN2C(=O)c3ccncc3C2=O)c(OC)c1 | -1.1 | . |
| COc1ccc(N=CC2=C(Cl)c3cc(Cl)ccc3SC2)cc1 | . | -0.31 |
| Cc1nn(CC(=O)NCc2ccc3c(c2)OCO3)c(=O)c2cccn12 | 1.7 | 0.28 |
| COc1ccc(OC)c(CCNc2ccc3nnc(-c4ccc(F)cc4)n3n2)c1 | . | -2 |
| CCC(C)NC(=O)Cc1noc2ccccc12 (centres undefined) | 0.82 | -0.19 |
| CCOC(=O)CNC(=O)CSc1ncccn1 | . | -2 |
| CSc1nnc2c(n1)OC(/C=C/c1ccccc1)Nc1ccccc1-2 (centres undefined) | -2.5 | 0.82 |
| CC1CCc2c(sc(NC(=O)CCC(=O)O)c2C#N)C1 (centres undefined) | -2.5 | -0.61 |
| COC(=O)c1cc(S(=O)(=O)Nc2ccccc2OC)cn1C | 0.63 | -1.1 |
| CCn1c2c(c(=O)[nH]c1=O)C(c1ccc(C)cc1)C1=C(N2)c2ccccc2C1=O (centres undefined) | -7.7 | -3.5 |
| N#C/C(=C\c1ccc(-c2ccc(Cl)cc2[N+](=O)[O-])o1)C(=O)O | . | -0.64 |
| O=C1CCCN1CCCNc1ncnc2scc(-c3ccc(Cl)cc3)c12 | 1.6 | . |
| CSc1nc2c(c(Nc3ccc(C)cc3)n1)CCC2 | 0.52 | 1.9 |
| COc1ccccc1CNc1c(-c2ccccc2)nc2ncccn12 | -0.17 | . |
| COc1ccc(/C=C/c2ccc(OC)cc2)cc1 | 1.5 | -1.5 |
| COC(=O)c1ccc2nc(SCc3ccc(F)cc3)n(C)c2c1 | 1.3 | 0.28 |
| CCOc1ccc(-n2c(C)c(C)c3c2ncn2nc(-c4cccnc4)nc32)cc1 | 0.02 | -1.9 |
| c1ccc(N2CCN(c3nc4ccccc4n4nnnc34)CC2)nc1 | 0.93 | -0.71 |
| CC(C(=O)NCc1cccs1)N1Cc2ccccc2C1=O (centres undefined) | 0.86 | . |
| CCNC(=O)c1c(NC(=O)c2nn(-c3ccc(OCC)cc3)ccc2=O)sc2c1CCCC2 | 0.29 | 1.2 |
| Cc1cccc(S(=O)(=O)Nc2ccc(Cl)c(N3CCCS3(=O)=O)c2)c1 | 0.79 | . |
| Cc1ccccc1C(Nc1ccccn1)c1ccc2cccnc2c1O (centres undefined) | 0.39 | -2.1 |
| COc1ccc(C2C(C(=O)c3cc4ccccc4o3)=C(O)C(=O)N2c2nccs2)cc1 (centres undefined) | -1.2 | -0.47 |
| O=C(NCCN1CCCCC1)C1CCN(c2nnc(N3CCCCC3=O)s2)CC1 | 1.2 | . |
| CCc1ccc2oc(C(=O)Nc3sc4c(c3C(=O)OC)CCC4)cc(=O)c2c1 | 2.5 | -1.9 |
| CC(C)c1ccc(NC(=O)Nc2cccs2)cc1 | 0.72 | 2 |
| CN1c2ccsc2C(=O)CS1(=O)=O | . | -2 |
| Cc1ccc(-c2csc(NC3OC(=O)c4ccccc43)n2)cc1C (centres undefined) | 0.79 | 0.53 |
| O=C(CN1C(=O)CCc2cc(Br)ccc21)NC1CCCC1 | 2.3 | . |
| O=S(=O)(NC1CCCC1)c1ccc(-c2cc(C(F)(F)F)on2)s1 | 2.5 | . |
| COc1ccc(OCc2nc(-c3ccc(NS(=O)(=O)c4cccs4)cc3)no2)cc1 | 0.66 | . |
| CCOC(=O)c1nnsc1Nc1ccc(F)c(Cl)c1 | -0.65 | . |
| COc1cccc(C2CC(=O)N3CN(C4CCCCC4)CSC3=C2C#N)c1 (centres undefined) | -0.12 | 5.3* |
| Cc1ccc(-c2nc3c(cnn3-c3ccccc3)c(=O)o2)cc1 | 0.41 | -0.65 |
| N#CC1=C2SCN(C3CCCC3)CN2C(=O)CC1c1ccc(F)cc1 (centres undefined) | 0.82 | 4* |
| Cc1ccc(N(C(=O)c2ccncc2)C2C=CS(=O)(=O)C2)cc1 (centres undefined) | 0.73 | -0.26 |
| NCCNc1c([N+](=O)[O-])cc(C(F)(F)F)cc1[N+](=O)[O-] | . | -0.87 |
| CCOC(=O)c1nc(N2CCC(C)CC2)c2c(C)noc2n1 | 0.22 | . |
| CCc1nc(SCc2cc(=O)n3c4c(sc3n2)CCCC4)n[nH]1 | 0.11 | . |
| COc1ccc(S(=O)(=O)NC2CCCCC2)cc1-c1nnc2c3ccccc3c(C)nn12 | 0.61 | 0.34 |
| CCN1C(=O)C(Cc2nc3ccccc3c(=O)[nH]2)c2cc(C)ccc21 (centres undefined) | 0.83 | -0.78 |
| Cc1cc(Br)ccc1OCCCN1CCC(C)CC1 | 0.42 | 0.24 |
| CCOC(=O)c1c(NC(=O)c2snnc2C)sc(C)c1C | 1.4 | 0.8 |
| CC(=O)N1CCOc2cc(S(=O)(=O)Nc3ccc(Cl)cn3)c(C)cc21 | 0.71 | . |
| CCOC(=O)c1c(C)oc2nc(C)nc(N3CCN(c4cccc(Cl)c4)CC3)c12 | 1.2 | . |
| COCCN1C(=O)c2cc3sccc3n2CC1(C)C(=O)NC1CCCCC1 (centres undefined) | 1.5 | -1.5 |
| COCCNC(=O)c1c(N2CCCC2=O)c2cc(OC)ccc2n1C | 0.03 | . |
| CCOC(=O)c1cnn(-c2ccccc2)c1NC(=O)CSc1nnc(-c2cccs2)o1 | . | -0.79 |
| CCc1nc(N2CCCC2)ncc1C(=O)O | 1.7 | -0.75 |
| O=C1SC(Nc2ccc(Cl)cc2)C(=O)N1c1ccccc1 (centres undefined) | 1.6 | -1.7 |
| O=c1onc(-c2cccs2)n1Cc1ccc(F)cc1Cl | 1.9 | -1.5 |
| Cc1csc2nc(CSc3nnc(N)s3)cc(=O)n12 | 0.42 | -0.4 |
| COc1ccc(-c2cn3cc(C)ccc3n2)cc1 | 1.3 | -2 |

(continued)
| compound | HIV TAR-Tat | CDC25B CDK2 inh |
| --- | --- | --- |
| CCCSc1ncc(Cl)c(C(=O)Nc2cccnc2)n1 | 1.2 | -1.4 |
| CC12CCC(=O)C=C1NC(=O)CC2 (centres undefined) | . | -0.57 |
| CCCNc1nc2c(c(=O)n(C)c(=O)n2C)n1C(C)C | 1.9 | -1.3 |
| CCOC(=O)c1sc2ncnc(Nc3cc(Cl)c(OC)cc3OC)c2c1C | 3 | . |
| O=C(c1ccccc1)c1ccc2nc(Cl)c3nnnn3c2c1 | -1.1 | 0.11 |
| CC(C)C(NC(=O)c1ccccc1N(Cc1ccccc1)S(=O)(=O)c1ccccc1)C(C)C | . | 0.32 |
| O=C(c1cc(O)c(O)c([N+](=O)[O-])c1)c1ccccc1F | . | -1.1 |
| O=C(O)CCNC(=S)Nc1cccc(C(F)(F)F)c1 | . | -1.5 |
| O=C(NCc1ccco1)C1CCN(c2ccc(F)cc2)C1=O (centres undefined) | 1.5 | . |
| CCSc1nnc(NC(=O)CSc2nc3c(c(=O)n2-c2ccc(C)cc2)SC(C)C3)s1 (centres undefined) | 2.3 | -0.42 |
| O=C1CNC(=S)N1CCc1c[nH]c2ccccc12 | . | -1.4 |
| CC(C)[C@@H]1CC[C@@H](C)C[C@H]1O | 1.2 | . |
| CC(C)OC(=O)Nc1ccc(Cl)cc1 | . | 1.8 |
| O=C(c1ccc(F)cc1)C1CCN(C(=O)c2ccc(-c3cccs3)s2)CC1 | . | -1.2 |
| Cc1cc(C)c(C#N)c(OC(=O)c2cccs2)n1 | . | -1.7 |
| CCOC(=O)CC(=O)CSc1nc(N)c2c(C)c(C)sc2n1 | -1.6 | -0.37 |
| CCS(=O)(=O)N1CCCc2ccc(NS(=O)(=O)c3ccc(Br)cc3)cc21 | -0.71 | . |
| COc1ccc([C@@H]2CC(=O)c3c(O)cc(O[C@@H]4O[C@H](CO[C@@H]5O[C@@H](C)[C@H](O)[C@@H](O)[C@H]5O)[C@@H](O)[C@H](O)[C@H]4O)cc3O2)cc1O | 2.7 | . |
| Cc1noc(C)c1C(=O)NCc1ccco1 | . | -0.91 |
| CCc1ccc(S(=O)(=O)NCc2cn3ccc(C)cc3n2)s1 | -0.89 | -2.4 |

Outcome played no part in choosing rows. About 0.94% of those tested had a hit in this group.
